YB-1 expression – inhibitors of YB-1 gene expression, primary screen, cell-based, fluorescence; U2OS, qRT-PCR YB-1 vs CDIP delta delta Cp, 16 h; stronger effect = higher value; zero = DMSO, each unit about twofold; delta delta Cp (YB-1 minus CDIP) (test concentration not listed); actives 0.37% (n = 30,000); AID 434959, 2010;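 active = delta delta Cp rounded down to an integer at or above 3, about 3 SD of DMSO wells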;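 also: higher means less YB-1 transcript or more CDIP transcript relative to DMSO; stock transfer was 100 nL into about 100 µL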
MITF inhib – inhibitors of MITF, primary screen, MITF inhibitor project, cell-based, luminescence | inhibition, % (concentration not given with the values) | TRPM1 promoter luciferase, 24 h | AID 2240, 2010 | actives 0.28% (n = 37,000);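 active = most replicates at 85% or more, or half of them and the mean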;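 also: human melanocyte line stably carrying TRPM1 promoter luciferase reporter; 0% = vehicle wells and 100% = a positive control; the first replicate is given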
PD-1 reversal – activators reversing PD-1 mediated T-cell inhibition, primary screen, luminescence, primary human CD4 T cells, PD-L1 beads; 29,000 tested, under 10 active; CellTiter-Glo 96 h; activation, % (concentration not given with the values);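 active = replicate mean of 50% or more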;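 also: 0% = median vehicle wells and 100% = positive control; 100 nL library stock added to about 50 µL; numbers are from one replicate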
Shh pathway inh – Hedgehog pathway signaling inhibitors, primary screen, luminescence, Shh-LIGHT2 cells, Gli-luciferase; Shh-LIGHT2 Gli-luciferase reporter, 30 h; inhibition, % (no concentration beside the values); actives 2.1% (n = 22,000); AID 2313, 2010;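 active = replicate mean of 65% or more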;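 also: pathway switched on by Shh-conditioned medium diluted 1 in 25 in low serum; 100 nL library stock added to about 40 µL; 0% = median of neutral wells and 100% = positive control level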
Numbers without * were called inactive; x = no result given. A portion of the library. The share of hits here may be higher or lower than overall.

SMILES | YB-1 expression | MITF inhib | PD-1 reversal | Shh pathway inh
COc1ccc(S(=O)(=O)N(C)C[C@H]2Oc3ccc(NC(=O)c4ccncc4)cc3C(=O)N([C@@H](C)CO)C[C@@H]2C)cc1 | 0.15 | 4 | -0.1 | -9
Cc1ccc(S(=O)(=O)Nc2cccc3c2O[C@@H](CN(C)Cc2ccc(C(=O)Nc4ccccc4N)cc2)[C@H](C)CN([C@H](C)CO)C3=O)cc1 | -0.065 | -5 | -0.6 | x
N/C(=N/C(=S)Nc1ccccc1)N1CCOCC1 | -0.48 | -26 | 2.4 | -36
CCOC(=O)c1ccc(SC)cc1OC | 0.3 | -28 | -0.6 | -26
C[C@H]1CN([C@@H](C)CO)C(=O)c2cc(NC(=O)NC3CCCCC3)ccc2O[C@H]1CN(C)Cc1ccc(C(=O)O)cc1 | -0.31 | -10 | -0.1 | x
C[C@@H]1CN([C@H](C)CO)C(=O)c2cc(NC(=O)CCN3CCOCC3)ccc2O[C@H]1CN(C)C(=O)Nc1ccc(C(F)(F)F)cc1 | 0.11 | -3 | 0.7 | -7
C[C@H]1CN([C@@H](C)CO)C(=O)c2cc(NC(=O)C3CC3)ccc2O[C@H]1CN(C)CC1CC1 | 13* | 2 | 1.6 | -15
COc1ccc(S(=O)(=O)N(C)CC(=O)Nc2cccc(C(F)(F)F)c2)cc1 | x | 39 | 0.0 | x
C=CCSc1nnc(-c2ccc(C)cc2)o1 | 0.19 | 38 | 0.0 | -170
CNC(=O)C1OC(C)(C(C)(C)C)OC1C(=O)NC (centres undefined) | -0.044 | 2 | -0.1 | x
COc1ccc(NC(=O)N(C)C[C@H]2OCCCC[C@@H](C)Oc3ccc(NC(=O)Nc4ccc5c(c4)OCO5)cc3C(=O)N([C@H](C)CO)C[C@@H]2C)cc1 | -0.22 | -6 | x | -15
C[C@@H]1CN([C@H](C)CO)C(=O)c2cccc(NC(=O)C3CC3)c2O[C@@H]1CN(C)S(=O)(=O)c1ccccc1 | 0.47 | -4 | 0.3 | 12
CSc1sc(C(=O)Nc2cccc(Cl)c2)c(-c2cccs2)c1C#N | -0.14 | 13 | -4.3 | 46
C[C@H]1CN([C@@H](C)CO)C(=O)c2cccc(NC(=O)C3CC3)c2O[C@H]1CN(C)S(=O)(=O)c1cn(C)cn1 | 0.11 | -7 | 1.5 | -24
COc1ccc(NC(=O)Nc2ccc(OC)c(OC)c2)cc1OC | 0.36 | 15 | 0.2 | 1
CCCN(C)C[C@H]1OCCCC[C@@H](C)Oc2ccc(NC(=O)c3ccncc3)cc2C(=O)N([C@H](C)CO)C[C@@H]1C | -0.42 | 0 | x | -18
O=C(CN1C(=O)c2cccc3cccc1c23)Nc1ccc(S(=O)(=O)N2CCOCC2)cc1 | x | 16 | 2.0 | x
O=[N+]([O-])c1ccccc1NCCNS(=O)(=O)c1ccc(Br)cc1 | x | 2 | 0.2 | x
N#Cc1ccccc1OCCCn1cnc2ccccc21 | x | -29 | -1.4 | x
C[C@H](CO)N1C[C@H](C)[C@H](CN(C)CC2CCCCC2)Oc2c(NC(=O)Nc3ccccc3)cccc2C1=O | 3.1* | -18 | -1.1 | -5
COc1ccc(NC(=O)Nc2ccc3c(c2)C(=O)N([C@H](C)CO)C[C@@H](C)[C@H](CN(C)S(=O)(=O)c2ccc(C)cc2)O3)cc1 | -0.27 | -13 | -0.2 | -8
C[C@H]1CN([C@@H](C)CO)C(=O)c2cc(NC(=O)Nc3ccc(C(F)(F)F)cc3)ccc2O[C@H]1CN(C)Cc1ccc(Oc2ccccc2)cc1 | 0.12 | 10 | -5.2 | 30
C[C@@H]1CN([C@@H](C)CO)C(=O)c2cc(NC(=O)Nc3ccccc3)ccc2O[C@@H]1CN(C)S(=O)(=O)c1cn(C)cn1 | 0.039 | -9 | -0.7 | 0
C[C@H](CO)N1C[C@H](C)[C@H](CN(C)Cc2ccccc2)Oc2ccc(NC(=O)Cc3cn(C)c4ccccc34)cc2C1=O | -0.58 | 11 | -0.4 | 2

Three compounds from above, sorted by SMILES length, ascending:
SMILES | YB-1 expression | MITF inhib | PD-1 reversal | Shh pathway inh
N#Cc1ccccc1OCCCn1cnc2ccccc21 | x | -29 | -1.4 | x
O=C(CN1C(=O)c2cccc3cccc1c23)Nc1ccc(S(=O)(=O)N2CCOCC2)cc1 | x | 16 | 2.0 | x
C[C@H](CO)N1C[C@H](C)[C@H](CN(C)CC2CCCCC2)Oc2c(NC(=O)Nc3ccccc3)cccc2C1=O | 3.1* | -18 | -1.1 | -5

(continued)
SMILES | YB-1 expression | MITF inhib | PD-1 reversal | Shh pathway inh
C[C@@H]1CN([C@@H](C)CO)C(=O)c2cc(N(C)C)ccc2O[C@@H]1CN(C)S(=O)(=O)c1ccc(Cl)cc1 | -0.061 | 5 | 0.8 | -19
COc1ccc(NC(=O)Nc2cccc3c2O[C@@H](CN(C)Cc2ccc(Cl)c(Cl)c2)[C@@H](C)CN([C@@H](C)CO)C3=O)cc1 | -0.062 | -5 | -2.3 | x
O=C(OC1C=C(CO)C2C(OC3OC(CO)C(O)C(O)C3O)OC=CC12O)c1ccc(O)cc1 (centres undefined) | 0.38 | x | x | -12
COc1ccc(CN(C)C[C@H]2Oc3ccc(NS(=O)(=O)c4cn(C)cn4)cc3C(=O)N([C@H](C)CO)C[C@@H]2C)cc1 | -0.49 | 0 | 1.2 | -41
COc1ccc(OC)c(NC(=O)Nc2cccc(Cn3cccn3)c2)c1 | x | -11 | 0.3 | x
COC(=O)c1cc(NC(=O)CSc2nnc(N)s2)ccc1Cl | x | -17 | -1.5 | x
COc1ccc(NC(=O)N(C)C[C@H]2Oc3ccc(NS(C)(=O)=O)cc3C(=O)N([C@@H](C)CO)C[C@H]2C)cc1 | -0.25 | -4 | 1.4 | -18
COc1cc2c(cc1OC)C(=O)CC(C)(C)O2 | -0.27 | 4 | -0.3 | -46
CCn1c(SCC(=O)Nc2ccc(F)cc2F)nnc1-c1ccccc1OC | x | 20 | -0.6 | x
O=C(NCC1COc2ccccc2O1)Nc1csc2ccccc12 (centres undefined) | -0.13 | 11 | -0.8 | 47
Cc1sc(NC(=O)CCn2cnc3ccccc3c2=O)c(C#N)c1C | x | -13 | 1.0 | x
C[C@H](CO)N1C[C@H](C)[C@@H](CN(C)Cc2ccc3c(c2)OCO3)Oc2c(NS(=O)(=O)c3ccc(Cl)cc3)cccc2C1=O | -0.085 | -19 | 0.2 | -20
COC1=CC(=O)OC(CCc2ccc(OC)c(OC)c2)C1 (centres undefined) | -0.066 | -7 | x | -1
C[C@H](CO)N1C[C@H](C)[C@H](CN(C)C(=O)Nc2ccc(F)cc2)Oc2ccc(N(C)C)cc2CC1=O | -0.47 | -15 | 1.3 | -29
Cc1ccc(NC(=O)CN(c2ccc(Br)c(C)c2)S(C)(=O)=O)cc1 | x | 19 | -5.1 | x
C[C@@H]1CN([C@H](C)CO)C(=O)c2cccc(NC(=O)Nc3cccc4ccccc34)c2O[C@@H]1CN(C)Cc1ccccc1 | -0.15 | 0 | 1.4 | 1
CC(C(=O)Oc1cccc2cccnc12)N1C(=O)c2ccccc2C1=O (centres undefined) | x | -19 | -16 | x
C[C@H](CO)N1C[C@H](C)[C@@H](CN(C)C(=O)Nc2ccc3c(c2)OCO3)Oc2c(NC(=O)C3CCOCC3)cccc2C1=O | -0.029 | -14 | 0.4 | -66
C[C@@H]1CN([C@H](C)CO)C(=O)Cc2cc(NC(=O)c3ccncc3)ccc2O[C@@H]1CN(C)Cc1ccc(Oc2ccccc2)cc1 | 0.84 | 4 | -3.1 | 73*
COc1cccc2cc(C(=O)C3C(=O)C(=O)N(CCCN(C)C)C3c3ccccc3F)oc12 (centres undefined) | x | -6 | 1.0 | x
C[C@@H]1CCCCO[C@H](CN(C)Cc2ccc(C(F)(F)F)cc2)[C@@H](C)CN([C@H](C)CO)C(=O)c2cc(NC(=O)Cc3ccccc3)ccc2O1 | -0.38 | -5 | 0.4 | x
O=C(O)C1CCCCC1C(=O)Nc1ccc([N+](=O)[O-])cc1 (centres undefined) | x | -6 | 1.7 | x
C[C@H](CO)N1C[C@H](C)[C@H](CN(C)Cc2ccncc2)Oc2ccc(NC(=O)Cc3cn(C)c4ccccc34)cc2C1=O | 0.33 | 13 | -1.8 | 2
CC(C)NC(=O)Nc1cccc2c1O[C@@H](CN(C)S(=O)(=O)c1ccc(F)cc1)[C@@H](C)CN([C@H](C)CO)C2=O | -0.13 | 17 | 0.7 | -3
Cc1ccc(S(=O)(=O)N(C)C[C@H]2Oc3ccc(NC(=O)CCN4CCOCC4)cc3C(=O)N([C@H](C)CO)C[C@@H]2C)cc1 | -0.041 | -2 | x | -9
COc1ccc(OC)c(NC(=O)CSc2nnc(-c3ccccc3)n2-c2ccccc2)c1 | x | 17 | -1.8 | x
Cc1nn(CC(=O)Nc2cc(Cl)cc(Cl)c2)c(C)c1[N+](=O)[O-] | x | 39 | -1.6 | x
Cc1ccn(CN2CCN(Cn3ccc(C)n3)C2=S)n1 | -0.14 | -5 | 0.5 | x
C[C@@H]1CN([C@H](C)CO)C(=O)c2cccc(NC(=O)Nc3ccc(C(F)(F)F)cc3)c2O[C@H]1CN(C)C(=O)Nc1ccc(C(F)(F)F)cc1 | 0.02 | 5 | x | -19
Cc1ccnc(NS(=O)(=O)c2ccc(NC(=O)c3csc(C)c3)cc2)n1 | x | -7 | 0.4 | x
COc1ccc(S(=O)(=O)Nc2ccc3c(c2)CC(=O)N([C@H](C)CO)C[C@@H](C)[C@H](CN(C)S(=O)(=O)c2ccc(F)cc2)O3)cc1 | 0.1 | 2 | 0.7 | -29
Cc1noc(C)c1S(=O)(=O)Nc1ccc2c(c1)C(=O)N([C@H](C)CO)C[C@H](C)[C@@H](CN(C)CC1CCCCC1)OCCCC[C@@H](C)O2 | -0.092 | -3 | -0.2 | x
C[C@@H]1CN([C@@H](C)CO)C(=O)c2cccc(NC(=O)Nc3ccc4c(c3)OCO4)c2O[C@@H]1CN(C)Cc1ccc(C(=O)Nc2ccccc2N)cc1 | -0.34 | 9 | -1.6 | x
C[C@@H]1CCCCO[C@@H](CN(C)C(=O)c2ccncc2)[C@@H](C)CN([C@H](C)CO)C(=O)c2cc(NS(=O)(=O)c3cccs3)ccc2O1 | 0.28 | -8 | 1.6 | 41
CCOC(=O)C(Cc1ccc(O)cc1)NC(C)=O (centres undefined) | 0.24 | 5 | x | -24
C[C@@H]1CN([C@H](C)CO)C(=O)c2cc(NS(=O)(=O)c3ccccc3)ccc2O[C@@H]1CN(C)Cc1ccc(C(F)(F)F)cc1 | -0.058 | -4 | 0.2 | x

Entries of single compounds, looked up by structure:
Record of Cc1ccn(CN2CCN(Cn3ccc(C)n3)C2=S)n1 : YB-1 expression: -0.14; MITF inhib: -5; PD-1 reversal: 0.5; Shh pathway inh: x
Record of COc1ccc(S(=O)(=O)Nc2ccc3c(c2)CC(=O)N([C@H](C)CO)C[C@@H](C)[C@H](CN(C)S(=O)(=O)c2ccc(F)cc2)O3)cc1 : YB-1 expression: 0.1; MITF inhib: 2; PD-1 reversal: 0.7; Shh pathway inh: -29

Remaining list, next part.
SMILES | YB-1 expression | MITF inhib | PD-1 reversal | Shh pathway inh
Cc1noc(C)c1NC(=O)N(C)C[C@H]1Oc2ccc(NC(=O)Nc3ccc(C(F)(F)F)cc3)cc2C(=O)N([C@@H](C)CO)C[C@@H]1C | 0.22 | -10 | -1.7 | -6
C[C@@H]1CN([C@H](C)CO)C(=O)c2cc(NC(=O)CCN3CCOCC3)ccc2O[C@@H]1CN(C)Cc1ccc(-c2ccccc2)cc1 | 0.6 | -15 | x | 25
C[C@@H]1CN([C@H](C)CO)C(=O)c2cc(NC(=O)C3CC3)ccc2O[C@H]1CN(C)C(=O)Nc1ccc2c(c1)OCO2 | 0.31 | 5 | x | -19
C[C@H](CO)N1C[C@H](C)[C@@H](CN(C)C)Oc2ccc(NC(=O)C3CC3)cc2C1=O | 0.09 | -3 | -0.1 | x
CNC[C@H]1Oc2ccc(NC(=O)Nc3ccc(OC)cc3)cc2C(=O)N([C@H](C)CO)C[C@H]1C | 0.093 | -2 | -0.2 | x
C[C@H]1C(=O)N2c3ccccc3[C@@]3(O)C[C@@H]4C(=O)N[C@@](C)(c5nc6ccccc6c(=O)n54)N1[C@@H]23 | 0.1 | 7 | 0.1 | -16
COc1ccc(NC(=O)N(C)C[C@H]2Oc3c(NC(=O)c4ccncc4)cccc3C(=O)N([C@@H](C)CO)C[C@@H]2C)cc1 | 0.22 | -7 | x | 24

Screening data from PubChem BioAssay.
